# WNV NS2B-NS3 inh = inhibitors of West Nile virus NS2B-NS3 protease. z-score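 (tested at a level between 10 and 100 µM)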. P06935. 65,000 tested, 0.18% active. WNV NS2B-NS3 protease, fluorogenic substrate Ex360/Em465; stronger effect = lower value;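 active = z-score at -3 or under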;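 note: score is relative to mean and spread of the compound wells of a plate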
# Target sequence (P06935 1371-1501 limits assumed): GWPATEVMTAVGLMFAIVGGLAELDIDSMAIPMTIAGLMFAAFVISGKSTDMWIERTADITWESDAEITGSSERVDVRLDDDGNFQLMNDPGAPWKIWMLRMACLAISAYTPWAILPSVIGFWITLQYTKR
# Target sequence (P06935 1502-1679 limits assumed): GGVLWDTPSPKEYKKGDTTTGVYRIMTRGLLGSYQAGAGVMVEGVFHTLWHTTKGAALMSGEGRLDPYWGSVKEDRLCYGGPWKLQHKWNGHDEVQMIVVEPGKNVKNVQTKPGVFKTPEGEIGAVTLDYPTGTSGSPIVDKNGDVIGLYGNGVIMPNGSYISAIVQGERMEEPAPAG
# Hsc70 ATP site = Hsc70 inhibitors, probe displacement, primary screen, biochemical, fluorescence polarization (AID 568); 83,000 tested, under 10 active; Hsc70 fluorescence polarization, probe displacement; higher % means a stronger effect; strong numbers were not always called active; displacement, % at 20 µM, or IC50 in µM where a hit was titrated;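 active = displacement above 50% without optical interference and an IC50 on retest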;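 note: ATPase domain with a fluorescein-tagged ATP probe; 0% = vehicle and 100% = excess ADP; read after one hour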
# MT1-MMP reporter = inhibitors of MT1-MMP promoter transcription, cell-based, luciferase reporter, luminescence (AID 618) | MT1-MMP promoter luciferase reporter cells, luminescence | calls from a first round at 10 µM; hits with a dose series show EC50 in µM | 87,000 tested, 0.62% active;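 active = over half of the reporter light lost at 10 µM or EC50 under 50 µM; inactive = the rest and hits that failed the dose series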;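 note: actives suppress MT1-MMP promoter-driven transcription so potencies describe inhibitors; HT1080 fibrosarcoma cells; overnight exposure; toxic or luciferase-blocking compounds were not removed from the actives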
# * = called active by the depositor; i = inactive; . = no result given. This is a subset (hit frequency here may not be typical).
SMILES,WNV NS2B-NS3 inh,Hsc70 ATP site,MT1-MMP reporter
CCn1c(=N)n(CC(=O)c2ccco2)c2ccccc21,0.16,-0.1%,i
CCOC(=O)CSC1=C(C#N)C(=O)NC2(CCCCC2)S1,-0.01,-5.9%,i
COCCNC(=O)c1ccc(NS(=O)(=O)c2cc(C)ccc2C)cc1,-1.7,-2.0%,i
Cc1occc1C(=O)OCC(=O)Nc1ccc(F)cc1,0.02,-10%,i
CCc1ccc2c(c1)C1(NN=C(c3ccccc3)S1)C(=O)N2 (stereo unspecified),.,7.2%,i
COc1cc(NC(=O)c2ccc(Br)o2)ccc1NC(=O)c1ccccc1Cl,0.14,-1.2%,i
CC(C)C(=O)Nc1ccc(C(=O)N2CCN(C(=O)c3ccco3)CC2)cc1,0.23,4.6%,i
Cc1nn(-c2ccccc2)c2c1C(O)n1c(nc3ccccc31)S2 (stereo unspecified),0.17,2.7%,i
COc1cc2c(C(=O)N3CCN(C)CC3)c(C)oc2cc1Br,-0.09,-2.1%,i
O=C(CCC(=O)N1CCc2ccccc21)Nc1ccccc1,-0.88,2.8%,i

# Individual results from above.
# O=C(CCC(=O)N1CCc2ccccc21)Nc1ccccc1 in WNV NS2B-NS3 inh reads -0.88
# COc1cc2c(C(=O)N3CCN(C)CC3)c(C)oc2cc1Br in Hsc70 ATP site reads -2.1%
# CCn1c(=N)n(CC(=O)c2ccco2)c2ccccc21 in Hsc70 ATP site reads -0.1%
# Cc1occc1C(=O)OCC(=O)Nc1ccc(F)cc1 in WNV NS2B-NS3 inh reads 0.02

# Additional records follow:
SMILES,WNV NS2B-NS3 inh,Hsc70 ATP site,MT1-MMP reporter
O=C(NC1CCCc2ccccc21)C1CCN(S(=O)(=O)c2cccc3nsnc23)CC1 (stereo unspecified),-1.7,-3.4%,i
Cc1cc2ncn(S(=O)(=O)N3CCCCC3)c2cc1C,0.73,6.9%,i
COCCNC(=O)c1ccc(C)c(S(=O)(=O)Nc2ccc(C)cc2)c1,.,-0.7%,i
O=C1CCC(C(=O)N(Cc2ccco2)C2(C(=O)NC3CCCC3)CCCCC2)N1 (stereo unspecified),-0.12,1.0%,i
CC(=O)N1N=C(c2cccc(Cl)c2)OC1c1ccc(C(C)C)cc1 (stereo unspecified),.,2.6%,i
Oc1c(Cl)cc(Cl)cc1/C=N/c1nccs1,.,2.5%,i
COc1ccccc1NC1=NC(c2ccc(Cl)cc2)N=C(N)N1 (stereo unspecified),1,-0.3%,i
COC(=O)C(CC(C)C)Oc1ccc2c(C)cc(=O)oc2c1 (stereo unspecified),0.88,0.0%,i
COc1ccc(C2CC(=O)C=C(NC3CCCC3)C2)cc1 (stereo unspecified),.,-0.6%,i
CCOC(=O)N1CCC(NC(=O)c2ccc3c(=O)n4c(nc3c2)CCCC4)CC1,0.47,1.0%,i
CCN1C(=S)SC(=O)C1=C1C=C(C)N(CCO)C(C)=C1,-1.5,-20%,i
CCOC(=O)c1c(-c2cccs2)csc1NC(C)=O,.,-0.4%,i
CCC(=O)Nc1c2c(nn1-c1ccccc1C)CSC2,0.85,1.9%,i
CC(C)(C)n1nc2c(c1NC(=O)COc1ccc3ccccc3c1)CS(=O)(=O)C2,.,-1.8%,i
CCOC(=O)C1CCCN(c2c(NCC3CCCN3CC)c(=O)c2=O)C1 (stereo unspecified),1.3,-1.3%,i
O=C(N1CCOCC1)N1CCC(n2nnc3ccccc32)CC1,0.59,-1.0%,i
Cc1nn(CC(=O)NC(C)c2ccccc2)c(=O)c2ccccc12 (stereo unspecified),-0.62,-2.0%,i
O=C(COc1cccc(OC(F)F)c1)Nc1ccc(SC(F)F)cc1,0.94,2.0%,i
CCOC(=O)c1ccccc1NC(=O)c1cn(CC)c2nc(C)ccc2c1=O,-0.85,2.2%,i
COCCNC(=O)C(C)OC(=O)c1cc2occc2n1C (stereo unspecified),-0.4,3.1%,i
COc1cccc(-c2nnc(SCC(=O)Nc3cc(C)ccc3OC)n2N)c1,-0.79,5.6%,i
Cc1ccccc1NS(=O)(=O)c1ccc(F)cc1,0.84,-2.6%,i
COc1ccc(Nc2nc(N)nc(SCc3nnc(C)s3)n2)cc1,1,-1.5%,i
COc1ccc(-c2nnc(SCC(=O)/C(C#N)=C(\C)N)o2)cc1,-1.1,-4.5%,i
COc1cc(-c2nn3c(Cc4ccccc4)nnc3s2)cc(OC)c1OC,-1.7,7.4%,i
Cc1cc(NC(=O)COn2nnc3ccc(Cl)cc32)no1,-0.89,1.1%,i
COC(=O)COc1ccc(S(=O)(=O)Nc2ccccc2C(=O)OC)cc1,-0.23,-6.0%,i
Cc1ccc2nc(N3CCOCC3)c3nncn3c2c1,-0.61,-1.8%,i
CCCc1ccc(Oc2cc(C)nc(N3CCOCC3)n2)cc1,.,-0.3%,i
NC(=O)C1CCN(C(=O)CSc2nc3ccccc3s2)CC1,.,3.4%,i
O=C(NCc1cccnc1)c1cc(-c2ccccc2)on1,2.1,0.4%,i
CCN(CC)CCCNC(CC(=O)O)C(=O)O (stereo unspecified),1.6,-3.4%,i
O=C(Nc1ccc2c(c1)OCO2)N1CCN(S(=O)(=O)c2ccc(Cl)cc2)CC1,0.78,1.8%,i
COC(=O)Cc1cc(=O)n2[nH]c(SC)nc2n1,.,1.8%,i
N#Cc1nc(COc2ccc(Cl)cc2Cl)oc1N1CCOCC1,-0.87,0.5%,i
COc1cccc(-n2nnnc2SCC(=O)c2cc(OC)ccc2OC)c1,0.13,-3.9%,i
COc1cc(C2C3=C(Nc4ncnn42)c2ccccc2CC3)cc(OC)c1OC (stereo unspecified),-1.2,-11%,i
O=C(NCc1ccco1)C(c1cccnc1)N(C(=O)Cn1nnc2ccccc21)c1ccccc1 (stereo unspecified),-0.93,2.1%,i
COC(=O)C1=C(C)N=C2SCCC(=O)N2C1c1ccc(C(=O)OC)cc1 (stereo unspecified),0.04,4.1%,i
Cc1ccc(CNc2cc(-c3nn4c(C)nnc4s3)ccc2C)s1,-1.8,-14%,i
O=C(CSc1nc2cccnc2n1Cc1ccccc1)NC1CCCCC1,.,0.5%,i
Cn1c(SCC(=O)Nc2ccc(F)cc2)nnc1-c1cccnc1,-0.41,5.9%,i
COc1ccc(C2C(C(N)=O)=C(C)Nc3nc(-c4ccccc4Cl)nn32)c(OC)c1 (stereo unspecified),1.2,4.9%,i
Cn1c(CNc2ccccn2)c(C#N)c2ccccc21,-0.45,5.0%,i
COc1cc(OC)c(NC(=O)CCc2ccccc2)cc1Cl,.,0.7%,i
COC(=O)c1c(C)[nH]c(C(=O)COC(=O)Cc2ccc3c(c2)OCCO3)c1C,-0.11,1.8%,i
Cc1ccc(C(=O)N2C3C=CC(C3)C2(C(F)(F)F)C(F)(F)F)cc1 (stereo unspecified),.,-0.2%,i
CCc1ccc2c(c1)CCCN2C(=O)c1ccccc1C(=O)O,-0.21,0.5%,i
O=C(O)C1C2C=CC(C2)C1C(=O)Nc1ccc(C(=O)N2CCCCC2)c(Cl)c1 (stereo unspecified),1.7,3.4%,i
COc1ccc(C(=O)NCc2cn3c(C)csc3n2)cc1OC,0.67,-10%,i
# The list goes on.
SMILES,WNV NS2B-NS3 inh,Hsc70 ATP site,MT1-MMP reporter
CC1=C(C(=O)OC(C)C)C(c2c(O)ccc3ccccc23)NC(=O)N1 (stereo unspecified),-0.54,3.8%,i
COc1ccc(-c2csc(C)n2)cc1,.,1.5%,i
O=C(CCN1C(=O)c2ccccc2S1(=O)=O)N1CCN(c2ccccc2)CC1,-0.48,0.9%,i
CCOc1nc(Nc2ccc(-c3nc4ccccc4o3)cc2)nc(N2CCOCC2)n1,-0.43,-5.3%,i
Cn1cc(S(=O)(=O)CC(=O)Nc2ccc(Br)cc2)c2ccccc21,-0.97,6.0%,i
C=CCn1c(C)cc(C(=O)COc2ncnc3sccc23)c1C,-0.21,-7.1%,i
COc1ccc(-c2nc(NC(=O)c3cc(C(C)(C)C)nn3C)sc2C)cc1,-1.1,-2.3%,i
N#CC1=C(N)NC(SCC(=O)O)=C(C#N)C12CCCC2,-0.49,0.4%,i
Cc1nc(N2CCC(C)CC2)c2oc3ccccc3c2n1,.,4.0%,i
CCN1C(=O)C2(C(C#N)=C(N)Oc3n[nH]c(COC)c32)c2ccccc21 (stereo unspecified),0.69,-6.2%,i

# Profiles, looked up by structure.
# Cn1cc(S(=O)(=O)CC(=O)Nc2ccc(Br)cc2)c2ccccc21 across the screens: WNV NS2B-NS3 inh: -0.97; Hsc70 ATP site: 6.0%; MT1-MMP reporter: i
# CCOc1nc(Nc2ccc(-c3nc4ccccc4o3)cc2)nc(N2CCOCC2)n1 across the screens: WNV NS2B-NS3 inh: -0.43; Hsc70 ATP site: -5.3%; MT1-MMP reporter: i

# Following part
SMILES,WNV NS2B-NS3 inh,Hsc70 ATP site,MT1-MMP reporter
O=S(=O)(c1cccc(-c2nc3n(n2)Cc2ccccc2-3)c1)N1CCCC1,-0.22,0.5%,i
C=CCOC(=O)CC(NC(=O)c1ccccc1)c1ccccc1 (stereo unspecified),0.72,5.2%,i
Cc1noc(C)c1C(=O)NC1CCCc2ccccc21 (stereo unspecified),-0.22,-3.1%,i
Cc1sc(NC(=O)c2ccco2)nc1-c1ccccc1,.,-1.8%,i
C=CCn1c(=O)c2ccccc2n2c(SCC(=O)NCc3cccs3)nnc12,-0.82,3.4%,i
O=C(CCN1CCCC1)Nc1ccccc1,.,-2.4%,i
Cc1ccc(NC(=O)N2CCC(C(=O)NCc3ccccc3)CC2)cc1,0.08,6.0%,i
CCOC(=O)c1oc2ccccc2c1NC(=O)c1cc(OC)cc(OC)c1,-0.2,3.4%,i
CCCCC(=O)NCCNc1nc2c(c(=O)n(C)c(=O)n2C)n1Cc1ccc(F)cc1,-1.6,2.2%,i
Cc1ccc2[nH]c3c(N4CCCCCC4)ncnc3c2c1,-0.04,-4.1%,i

# An excerpt from above, limited to Hsc70 ATP site and WNV NS2B-NS3 inh:
smiles,Hsc70 ATP site,WNV NS2B-NS3 inh
Cc1ccc(NC(=O)N2CCC(C(=O)NCc3ccccc3)CC2)cc1,6.0%,0.08
CCOC(=O)c1oc2ccccc2c1NC(=O)c1cc(OC)cc(OC)c1,3.4%,-0.2
CCCCC(=O)NCCNc1nc2c(c(=O)n(C)c(=O)n2C)n1Cc1ccc(F)cc1,2.2%,-1.6

# Further compounds follow:
SMILES,WNV NS2B-NS3 inh,Hsc70 ATP site,MT1-MMP reporter
CC1=C(C#N)C(=O)OC(C)(C)C1,-8.2*,22%,i
N#CCSc1nc2c(cc1C#N)CCCC2,0.36,-4.9%,i
CCn1c(CNc2cccc(Cl)c2)nnc1SCC(=O)OC1CCCCC1,0.29,-1.1%,i
O=C(COc1ccc(Cl)cc1Cl)NCc1ccncc1,-0.58,-6.9%,i
Cc1ccc(C(=O)Nc2ccc(O)cc2C(=O)O)cc1,.,-2.6%,i
Clc1ccccc1-c1ccc(/C=N/n2cnnc2)o1,0.52,-3.1%,i
Cc1noc(C)c1S(=O)(=O)NCC(=O)O,-0.74,1.2%,i
N#C/C(=C\c1ccc(-c2cccc(Cl)c2)o1)C(=O)Nc1cccc2cccnc12,.,-12%,i
O=c1cc(-c2cccc3ccccc23)[nH][nH]1,-0.64,4.1%,i
CCCN1Cc2cccc(C(=O)N3CCN(c4cc(Cl)ccc4C)CC3)c2C1=O,-0.58,-3.9%,i
COCCn1nnnc1C(c1ccccc1OC)N1CCN(c2ccccc2)CC1 (stereo unspecified),1.4,-9.2%,i
CCC(=O)Nc1sc2c(c1C(N)=O)CCN(C(C)=O)C2,-0.62,3.2%,i
Cc1ccc(-n2nnnc2SCC(=O)N2c3ccccc3NC(=O)C2(C)C)cc1,-0.96,4.7%,i
Cn1c(CN2CCOCC2)nc2cc(NC(=O)c3ccc(Cl)cc3)ccc21,0.0024,-0.7%,i
CCn1c(SC/C=C/c2ccccc2)nnc1-c1cnccn1,-0.86,-2.7%,i
O=C(Nc1ccc2oc(-c3ccccc3)nc2c1)c1ccccc1F,.,-0.2%,i
O=C(CCNS(=O)(=O)c1cccs1)NCc1cccs1,-0.54,4.2%,i
COc1ccc2c(c1)C1(Nc3ccccc3-c3nc4ccccc4n31)C(=O)N2 (stereo unspecified),-0.7,2.0%,i
CCCCCCSc1ncc(C#N)c(N)n1,0.04,-3.1%,i
C=CCSC1=C(C#N)C(c2ccccc2OCC)CC(=O)N1 (stereo unspecified),-0.08,1.1%,i
COc1ccc(O)c(C(=O)c2cnn(C(=O)c3cc(C)oc3C)c2)c1,2.3,3.2%,i
CCN(CC)C(=O)C1CCCN(Cc2ccc(N(C)C)cc2)C1 (stereo unspecified),-1,0.2%,i
O=C(Nc1ccccc1)Nc1ccc(C(=O)N2CCOCC2)cc1,.,-4.0%,i
Cc1ccc(-c2nn(CC(=O)NC(C)c3ccccc3)c(=O)c3ccccc23)cc1 (stereo unspecified),.,3.2%,i
COC(=O)c1c(NC(=O)c2ccoc2C)sc2c1CCC2,0.64,-26%,i
O=C1CCc2nc3sc4c(c3c(=O)n2N1)CCCC4,0.82,4.5%,i
O=C(NCc1ccc2c(c1)OCO2)C1CCCN1C(=O)Nc1ccc(F)cc1 (stereo unspecified),0.83,-0.6%,i
Cc1ccc(S(=O)(=O)NCC(=O)Nc2ccc(C(F)(F)F)cc2)cc1,.,0.1%,i
O=C(CSc1oc(-c2ccco2)nc1S(=O)(=O)c1ccccc1)NCC1CCCO1 (stereo unspecified),-0.71,3.9%,i
CC1CCCC(NC(=S)Nc2ccc(SC(F)F)cc2)C1C (stereo unspecified),.,-1.2%,i
CCOc1ccc(CN(CCO)CCO)cc1C(=O)OC,-0.36,-3.3%,i
O=C(NCCC1=CCCCC1)C1CCCN(S(=O)(=O)c2cccnc2)C1 (stereo unspecified),-1.3,-3.3%,i
